HIV Env fusion – HIV envelope-mediated fusion inhibition. inhibition, % at 12.3 µM. 360,000 tested, 1.1% active. HeLa-JRFL Env/CEM21 cell fusion, luciferase;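 active = mean replicate inhibition score of at least 50 and every replicate individually at or above 50; inconclusive = only one of the two criteria met; inactive = mean below 50 and not all replicates reaching 50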;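 also: 0% = plate neutral controls and 100% = maraviroc near 300 nM; one replicate is shown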
MT1-MMP act inh – inhibitors of human MT1-MMP activation. HT1080 RFP-PRO-GFP cells, GFP/RFP ratio fluorescence, overnight; percent of plate control window, DMSO zero. P50281. AID 651647. GFP/RFP ratio change, % at 20 µM. 360,000 tested, 0.061% active;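 active = GFP/RFP ratio change of at least 30% with cell ATP level not reduced by more than half and red fluorescence within 50% of control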; also: strong numbers were not always called active
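Test system: HT1080 RFP-PRO-GFP cells; Benchmarks: DMSO and RFP-L50D-GFP cell wells; Timing: cells overnight before dosing, compound overnight, 37 °C, 5% CO2; Compound: one 20 µM compound dose with 1% DMSO; Read-out: GFP/RFP fluorescence ratio.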
PABP FP inh – blocks human PABP binding to poly(A) RNA | fluorescence polarization | P11940 | 290,000 tested, 1% active | inhibition, % at 35 µM;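 active = 50% or more with normal probe brightness, or confirmed in later tests; inconclusive = above 50% with abnormal brightness, or retests that disagree; inactive = below 50% or failed in later tests; about a fifth of its hits are not listed in these tables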;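 also: calls also rest on retests at 20 µM and on dose response follow-up; controls were probe without protein and protein plus probe with vehicle; some compounds called inactive have numbers as strong as hits; many hits fall short of the cut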
eIF4H inh – inhibitors of RNA binding by human eIF4H. inhibition, % at 35 µM. Q15056. eIF4H fluorescence polarization binding assay. 290,000 tested, 0.94% active;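 active = 50% or more with normal probe brightness, or confirmed in later tests; inconclusive = above 50% with abnormal brightness, or retests that disagree; inactive = below 50% or failed in later tests; about a fifth of its hits are not listed in these tables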;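 also: calls also rest on retests at 20 µM and on dose response follow-up; 0% = protein and probe with vehicle and 100% = probe without protein; strong numbers were not always called active; many hits fall short of the cut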
CSC inhib – blocks cancer stem cells; cancer stem cell-like cells viability, luminescence; inhibition, % at 7.5 µM; 300,000 tested, 1.1% active; AID 2717;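 active = mean at 75% or more and at least half the replicates too; inconclusive = mean and replicates disagree; tested in HMLE shEcad cells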;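 also: 0% = median of negative and 100% = median of positive control wells; the first replicate is given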
Rce1 inhib – blocks yeast Ras-converting enzyme; Q03530; yeast membranes, quenched prenylated peptide cleavage fluorescence; calls only; 290,000 tested, 0.27% active; AID 2563;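 active = fall in fluorescence gain of 50% or more versus controls, with final raw signal at or below 3038400; inconclusive = same 50% fall but final raw signal above 3038400; inactive = fall in fluorescence gain under 50%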;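 also: plate controls were neutral control wells for no effect and wells lacking membranes for full effect; tested at 10 µM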
Target sequence (Q03530 whole entry, looked up): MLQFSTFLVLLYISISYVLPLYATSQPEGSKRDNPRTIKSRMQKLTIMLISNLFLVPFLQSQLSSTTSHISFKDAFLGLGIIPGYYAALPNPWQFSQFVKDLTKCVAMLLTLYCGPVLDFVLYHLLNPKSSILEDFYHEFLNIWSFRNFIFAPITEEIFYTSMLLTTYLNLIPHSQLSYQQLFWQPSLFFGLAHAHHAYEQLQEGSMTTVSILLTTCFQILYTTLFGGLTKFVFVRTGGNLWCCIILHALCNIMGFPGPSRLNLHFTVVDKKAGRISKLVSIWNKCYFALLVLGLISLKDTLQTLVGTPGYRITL
Yeast UUG start – alters start codon recognition fidelity in yeast. activity score, % at 18.7 µM. 350,000 tested, 0.13% active. S. cerevisiae UUG-firefly luciferase reporter, luminescence/redox ratio;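 active = replicate mean at a twofold rise or more, about +100% in these data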;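 also: firefly luciferase made from a UUG start codon reports start codon fidelity; reporter light over untreated wells divided by growth signal over untreated wells; some hits fall short of that in this replicate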
eIF4H inh retest – recorded beside eIF4H inh, whose call it bears; inhibition, %; compound at 20 µM; confirmation average;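 mean of two retest wells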
PABP FP inh retest – recorded beside PABP FP inh, whose call it bears; inhibition, %; compound at 20 µM; confirmation repeats;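 mean of two retest wells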
MT1-MMP act inh RFP – recorded beside MT1-MMP act inh, whose call it bears; RFP signal change, %; measured here: RFP expression control read;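 0 = vehicle wells; hits needed this value within 50% of zero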
Starred values were filed as active, the others as inactive; i = inactive; ? = inconclusive; / = not tested or not shown.

SMILES | HIV Env fusion | MT1-MMP act inh | MT1-MMP act inh RFP | PABP FP inh | eIF4H inh | CSC inhib | Rce1 inhib | Yeast UUG start | others
CC(CN1CCN(C)CC1)OC(=O)c1ccc(Cl)cc1Cl (centres undefined) | -59 | 6 | 7 | 6 | -9 | -13 | i | -12
NS(=O)(=O)c1ccc(NC(=S)NNC(=O)c2ccc(Br)o2)cc1 | 6 | 2 | 5 | 4 | 5 | -12 | i | -18
CC(C)CNC(C(=O)Nc1ccc([N+](=O)[O-])cc1Br)c1ccccc1 (centres undefined) | 11 | 0 | 1 | -6 | 1 | 26 | / | /
COc1ccc(/C(C)=N\NC(=O)c2ccc3c(c2)OCO3)cc1OC | -1 | / | / | 3 | 4 | -1 | i | /
COc1cc(OC)cc(-c2c(-c3cccs3)c3cc(-c4ccc5[nH]ccc5c4)ccc3n2C)c1 | 47 | -5 | -7 | / | / | 4 | / | -10
O=C1/C(=C\Nc2ccc(Cl)cc2)CCN1c1ncccn1 | / | 1 | 4 | 3 | 11 | 9 | i | -2
CC(C)(C)c1cc(C(=O)NCCN2CCCC2)cc(C(C)(C)C)c1 | 0 | 3 | -4 | 1 | 1 | -3 | i | /
Cc1ccc(NC(=O)CCn2nc(C)cc2C)cc1 | -27 | 1 | 4 | 0 | -5 | -11 | i | -6
CC(=O)C1=NN(c2ccccc2)C2(S1)S/C(=C\c1ccccc1)C(=O)N2c1ccccc1 (centres undefined) | / | -4 | -7 | 1 | 1 | -16 | i | -11
COc1ccc(-c2nc(S(=O)(=O)c3ccccc3)c(N3CCOCC3)o2)cc1 | 6 | 0 | -2 | -8 | 2 | -7 | i | /
O=C1CCC/C(=N/NC(=O)c2cc(NS(=O)(=O)c3cccs3)cc(NS(=O)(=O)c3cccs3)c2)C1 | -6 | 0 | 5 | 5 | 8 | 2 | i | /
Cc1ccc(SCC(=O)c2sc(-c3ccccc3)nc2C)cc1 | / | -1 | -2 | -1 | -8 | 20 | i | -2
CCOC(=O)CN/C=C(\C#N)c1ccc(F)cc1 | 8 | 2 | -2 | -12 | 1 | -10 | i | /
COc1ccc(Cl)cc1NC(=O)CCn1c(=O)oc2ccccc21 | 4 | -3 | 0 | -2 | -16 | 6 | i | 2
CC1CCC(C(C)C)C(=O)/C1=C\c1ccc(NC(=O)CCC(=O)O)cc1 (centres undefined) | 6 | 2 | 7 | -4 | 10 | -32 | i | -2
CN(CC(=O)Nc1ccc(Cl)c(Cl)c1)C(=O)CNC(=O)C1CCCCC1 | 4 | 2 | 0 | / | / | / | / | -10
CCc1noc(C)c1C(=O)N(C)CC(=O)Nc1cccc(OC)c1 | / | 2 | 6 | / | / | 2 | / | -11
CS(=O)(=O)c1nc(S(=O)(=O)c2ccc(Cl)cc2)c(N2CCCCC2)s1 | -4 | -4 | -4 | 11 | 0 | -17 | i | -18
COc1ccc(OC)c(C(=O)NC(CC(N)=O)c2ccc(NCCOc3ccccc3)c([N+](=O)[O-])c2)c1 (centres undefined) | 4 | 5 | 1 | 0 | -8 | 11 | i | -17
COc1ccc(COC(=O)c2ccc3c(=O)n4c(nc3c2)CCC4)cc1F | -25 | / | / | 0 | -4 | -5 | i | /
Cc1ccc(S(=O)(=O)N2CCOCC2)cc1C(=O)Nc1cc(S(=O)(=O)N2CCCCC2)ccc1O | -127 | 2 | -4 | / | / | / | / | -10
CC(=O)NC(C)(c1ccccc1)c1nc(-c2cccc(F)c2)cs1 (centres undefined) | -5 | 4 | -1 | / | / | / | / | -13
CNS(=O)(=O)c1ccc(C(=O)NCC(=O)NC(C)c2cccs2)cc1 (centres undefined) | 5 | 1 | 1 | / | / | / | / | -10
O=C(COC(=O)/C=C/c1ccco1)NCc1ccccc1Cl | -12 | 6 | 5 | 22 | -2 | -9 | i | /
Cc1ccc(S(=O)(=O)N2CCC(C(=O)NCC3CCCCC3)CC2)cc1 | 5 | 1 | 0 | 2 | -4 | -7 | / | -15
Next part
SMILES | HIV Env fusion | MT1-MMP act inh | MT1-MMP act inh RFP | PABP FP inh | eIF4H inh | CSC inhib | Rce1 inhib | Yeast UUG start | others
CNc1sc(C(=O)c2cccs2)c(N)c1-c1nc2ccccc2s1 | / | -4 | 2 | 33 | 5 | 38 | i | /
O=C(CNC(=O)c1n[nH]c2ccccc12)Nc1ccc(F)c(F)c1F | / | 3 | 0 | / | / | -6 | / | -9
CCOC(=O)C1CCCN(c2c(C(=O)c3ccccc3)cnc3ccccc23)C1 (centres undefined) | 28 | 1 | -3 | 1 | -4 | 6 | i | /
CN(C)c1cccc(-c2csc(N3CCC(C(N)=O)CC3)n2)c1 | -47 | 3 | -1 | / | / | -22 | / | 6
CN(CC(=O)Nc1ccc(OC(F)(F)F)cc1)C(=O)c1ccc(N2CCCC2=O)cc1 | / | -4 | -24 | / | / | -3 | / | -19
O=C(COc1cccnc1[N+](=O)[O-])Nc1cccc(S(=O)(=O)N2CCOCC2)c1 | -7 | 6 | 0 | 6 | -3 | -13 | i | /
CC(C)C(=O)NNC(=O)CSc1ncnc2c1cnn2-c1ccccc1Cl | 6 | 2 | 0 | 19 | 24 | 8 | i | /
CSc1ccccc1NC(=O)CSCc1ccccc1Br | / | -2 | -2 | 1 | 0 | -1 | i | -3
CC1CCC2(CC1)NC(=O)N(CC(=O)N1CC(C)CC(C)C1)C2=O (centres undefined) | / | 6 | 4 | / | / | -15 | / | 3
Cc1noc(C)c1-c1ccc(C(=O)NCc2cccc(Cl)c2)c2occc12 | -16 | 10 | 2 | / | / | / | / | -7
Cc1ccc(C2NC(=O)Cc3ccccc32)cc1 (centres undefined) | / | 2 | 2 | 8 | 2 | -7 | i | /
Fc1ccccc1-c1nnc2c3ccccc3nc(N3CCOCC3)n12 | -34 | -1 | -3 | -4 | -10 | 2 | i | 11
CCCN1C2=C(C(=O)CC(C)(C)C2)C(c2ccc(F)cc2)C2=C1c1ccccc1C2=O (centres undefined) | ? | -35 | 1 | 4 | -7 | 6 | i | -6
COc1ccc(CCN2CCCn3c2nc2c3c(=O)n(CC(N)=O)c(=O)n2C)cc1OC | 6 | -2 | -1 | -2 | -12 | 3 | i | -8
CC1CCCCN1C(=O)CSc1nnc(-c2ccccc2F)o1 (centres undefined) | -1 | 3 | 4 | -3 | -3 | / | i | -15
O=C(Nc1ccc(Br)cc1)Nc1ccccc1Cl | -35 | -2 | -8 | 0 | -8 | 13 | i | /
CC(=O)c1ccc(NC(=S)N2CCC(Cc3ccccc3)CC2)cc1 | 1 | -1 | -5 | -3 | -9 | -11 | i | /
O=c1c2cc([N+](=O)[O-])ccc2sn1-c1ccccc1 | -29 | 5 | 5 | / | / | / | / | 3
Nc1nc(/C=C/c2ccc(F)cc2)nc(-c2ccccc2O)n1 | 18 | 1 | 0 | -2 | -2 | -4 | i | -15
O=C(COc1ccc(Cl)cc1)Nc1cccc(-c2ccc(N3CCOCC3)nn2)c1 | / | 11 | -5 | / | / | / | i | -25
Cc1ccc(S(=O)(=O)Cc2ccc(C(=O)NCCCN3CCCC3=O)o2)cc1 | 8 | 1 | 0 | 7 | 15 | -10 | i | 14
CN(C(=O)NC(=O)C1=C(N2CCOCC2)/C(=C/c2ccccc2)CC1)S(C)(=O)=O | -101 | 0 | 0 | 8 | 15 | -7 | i | -23
CCOC(=O)CSC1=C(C#N)C(c2ccc(Cl)cc2)C(C(=O)OC)C(=O)N1 (centres undefined) | / | 0 | -7 | 6 | -13 | -1 | i | -17
Cc1ccnc(NC(=O)CCCOc2ccc(Cl)cc2C)c1 | -6 | / | / | 3 | -5 | 57 | i | /
CCN(CC)S(=O)(=O)c1ccc(N2CCOCC2)c(NC(=O)c2ccc(=O)[nH]c2)c1 | i | 0 | 5 | / | / | -1 | / | 0
(further entries)
SMILES | HIV Env fusion | MT1-MMP act inh | MT1-MMP act inh RFP | PABP FP inh | eIF4H inh | CSC inhib | Rce1 inhib | Yeast UUG start | others
COc1ccccc1NC(=O)COc1ccc(CO)cc1Cl | / | 1 | -2 | -11 | -9 | 17 | i | -5
COC(=O)c1cc2nc(-c3ccc(OC)cc3)cc(C(F)(F)F)n2n1 | / | 3 | -2 | -7 | -14 | -3 | i | -14
CCC(CC)C(=O)Nc1nc(-c2ccc3c(c2)CCN3C(=O)C2CC2)c(C)s1 | / | -4 | -11 | -1 | -6 | 31 | i | -17
CCCCOc1ccc(/C(O)=C(\C#N)c2nc3ccccc3[nH]2)cc1 | -17 | -7 | -3 | 9 | 2 | -11 | i | -17
CC(C)NCC(O)COCCOc1ccc(C(C)(C)C)cc1 (centres undefined) | 2 | 2 | 2 | 30 | 92 | -14 | i | -5 | eIF4H inh retest=-9;PABP FP inh retest=-3
CCc1nnc(NC(=O)[C@@H](NC(=O)c2cccc(C)c2)C(C)C)s1 | -5 | 3 | 5 | 13 | -1 | -9 | i | /
O=C(C1CCCCC1)N1CCC(c2nc3ccccc3[nH]2)CC1 | / | 0 | 3 | -8 | 2 | -17 | i | -5
CSc1nnnc2ccccc12 | -89 | -2 | 2 | / | / | / | / | -18
O=C1C(=O)N(CCN2CCOCC2)C(c2cccc(Cl)c2)/C1=C(/O)c1ccc2c(c1)OCO2 (centres undefined) | -34 | 0 | 5 | -1 | -8 | 7 | i | -14
Cc1ccc(S(=O)(=O)Nc2ccc3c(c2)nc(CN2CCCC2)n3C)cc1 | / | 3 | 2 | -12 | -1 | -8 | i | /
CC(C)c1ccc(NS(=O)(=O)c2cn(C)c(=O)n(C)c2=O)cc1 | -7 | -3 | 3 | -8 | -13 | -9 | i | -12
COc1ccc(-c2cnc(OC(C)(C)C)nc2OC(C)(C)C)cc1OC | 4 | -1 | -7 | -10 | -7 | -5 | i | -23
C[n+]1c(/C=C/c2ccc(O)cc2)ccc2ccccc21 | -38 | 3 | -2 | -14 | -5 | 5 | i | 43
O=C(NCc1ccccc1)N1CCn2c(nc3ccccc32)C1 | / | 9 | 2 | -4 | 10 | -8 | i | /
Cc1nn(C)cc1CNC(=O)C1C2CCC(O2)C1C(=O)O (centres undefined) | / | / | / | 1 | -4 | 1 | i | /
O=C1C=CC(=O)N1c1ccc(Sc2ccc([N+](=O)[O-])cc2)cc1 | / | / | / | -2 | 3 | 7 | i | /
CCCC(=O)Nc1cc(=O)n(C)c(=O)n1C | 23 | 1 | 7 | -3 | -12 | -12 | i | -12
O=C(Nc1cccc(S(=O)(=O)N2CCOCC2)c1)c1cnccn1 | -16 | -8 | -9 | -6 | -1 | 2 | i | -14
O=C(CCc1ccccn1)N1CCCC(Nc2ccc(F)cc2)C1 (centres undefined) | -13 | -5 | -1 | 14 | -4 | 18 | i | -30
Fc1ccccc1Cc1noc(CN(Cc2ccccn2)CC2CCCO2)n1 (centres undefined) | -4 | 3 | 3 | 4 | 1 | -3 | i | /
O=C(NCCO)C(F)(F)C(F)(F)C(F)(F)OC(F)(C(=O)NCCO)C(F)(F)F (centres undefined) | / | -1 | 3 | -3 | -7 | -6 | i | -16
C=CCn1cccc(C(=O)Nc2ccc(F)cc2)c1=O | -20 | 5 | -8 | 10 | -5 | -8 | i | 5

Outcome played no part in choosing rows (roughly 3% active in at least one column).
